Assay outcomes: PubChem BioAssay, several laboratories
UCH37 inh – blocks the human deubiquitinase UCH37; inhibition, % (concentration not given with the values); 0.33% of 330,000 active; purified proteasome/UCH37, Ub-AMC cleavage fluorescence; Q9Y5K5;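 active means mean of two replicates above 20%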;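 further: 0% = compound-free wells with enzyme and 100% = wells lacking proteasome; stock transfer was 100 nL into about 20 µL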
Target sequence (Q9Y5K5 whole entry, looked up): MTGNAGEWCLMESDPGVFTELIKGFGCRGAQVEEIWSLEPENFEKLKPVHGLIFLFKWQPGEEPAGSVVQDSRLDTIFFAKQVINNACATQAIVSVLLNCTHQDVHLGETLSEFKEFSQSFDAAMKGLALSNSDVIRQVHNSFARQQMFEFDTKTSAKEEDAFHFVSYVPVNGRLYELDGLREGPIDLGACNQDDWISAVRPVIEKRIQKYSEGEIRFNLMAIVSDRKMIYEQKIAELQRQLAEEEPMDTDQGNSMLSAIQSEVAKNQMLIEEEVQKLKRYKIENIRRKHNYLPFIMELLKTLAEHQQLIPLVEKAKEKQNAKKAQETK
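system = Proteasome-associated human UCH37 deubiquitinase | amount = 0.15 nM proteasome as dispensed | medium = pH 7.4 Tris-HCl (50 mM) with ovalbumin, ATP-MgCl2, DTT | incubation = 30 min preincubation with enzyme, 25 min cleavage at room temperature | detection = AMC fluorescence 355/460 nm | read-out basis = percent inhibition | controls = no-proteasome and no-compound wells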
Beta2AR agonist – agonists of human beta-2 adrenergic receptor inducing internalization; P07550; Am2.2-beta2AR cells, FAP receptor internalization, flow cytometry; reference of the scale not given here; response, % (concentration not given with the values); 0.43% of 340,000 active;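 active means response above a set limit, near 3 SD of response in nonfluorescent compounds, cut at about 42% in these data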;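 further: stock transfer was 100 nL into about 11 µL; a reference agonist was the positive control; negative values mostly stem from fluorescent compounds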
HNF4A DNA FP – change in binding of human HNF4 alpha to DNA; activity change, % at 10 µM; 0.3% of 360,000 active; AID 1224865; HNF4a-FITC DNA binding, fluorescence polarization, 1 h; in the data active means activity change above about 30%, passing the limit was not always enough;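 further: controls were the assay level and a saturating level of protein; the project sought stronger binding though the title names inhibitors; some compounds called inactive have numbers as strong as hits; positive values seem to mean higher polarization but the record does not say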
Target sequence (P41235 whole entry, looked up): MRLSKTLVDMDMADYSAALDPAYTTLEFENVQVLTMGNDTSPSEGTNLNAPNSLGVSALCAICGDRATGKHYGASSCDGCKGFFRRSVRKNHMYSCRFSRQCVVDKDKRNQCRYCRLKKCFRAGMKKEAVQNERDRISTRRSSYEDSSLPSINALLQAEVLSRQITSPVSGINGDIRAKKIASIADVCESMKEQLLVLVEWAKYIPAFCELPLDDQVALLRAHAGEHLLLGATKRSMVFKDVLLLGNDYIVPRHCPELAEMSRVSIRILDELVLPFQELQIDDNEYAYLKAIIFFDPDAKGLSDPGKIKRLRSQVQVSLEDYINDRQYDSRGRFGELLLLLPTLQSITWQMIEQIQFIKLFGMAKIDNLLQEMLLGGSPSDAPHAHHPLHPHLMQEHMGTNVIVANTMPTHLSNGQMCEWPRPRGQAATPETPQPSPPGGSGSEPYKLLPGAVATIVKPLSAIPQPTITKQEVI
ALR inh – human ALR oxidase inhibition via reduced H2O2 | 3.8% of 290,000 active | inhibition, % (concentration not given with the values) | AID 485317 | purified ALR, DTT oxidation, H2O2 HRP-luminol luminescence;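 active means mean and each replicate at 75% or more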;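 further: stock transfer was 7.5 nL into about 7.5 µL; 0% = neutral wells and 100% = wells with inactivated enzyme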
FGF22 binding – FGF22 (human) thermal shift binding; Q9HCT0; recombinant FGF22 thermal shift, SYPRO orange fluorescence; percent of sucrose octasulfate shift, DMSO zero; calls only at 9.99 µM; 1.5% of 340,000 active;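 active means melting point raised past a set limit in the mean and every replicate; three in four hits are not shown here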
Target sequence (Q9HCT0 whole entry, looked up): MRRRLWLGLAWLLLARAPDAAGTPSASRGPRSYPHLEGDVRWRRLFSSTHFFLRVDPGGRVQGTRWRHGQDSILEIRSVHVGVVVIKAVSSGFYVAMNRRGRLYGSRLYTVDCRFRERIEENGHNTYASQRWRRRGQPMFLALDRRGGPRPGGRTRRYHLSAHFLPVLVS
Ecoli growth – E. coli growth inhibition. Escherichia coli growth, OD600, 23 h; stronger effect = lower value. OD600 absorbance (concentration not given with the values). 0.21% of 330,000 active. AID 1053175;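 active means OD600 absorbance below the run mean of sample wells minus 3.6 SD, in any replicate, cut at about 0.56 in these data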;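 further: stock transfer was 300 nL into about 60 µL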
Ecoli rRNA inh – inhibits bacterial ribosomal RNA function over humanized ribosomes. GFP signal change (wild-type ribosome), % (concentration not given with the values). E. coli WT GFP vs humanized-ribosome RFP mutants, fluorescence, 24 h; stronger effect = lower value; DMSO median 0, no signal -100. 1.6% of 350,000 active;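 active means significant combined selectivity score with lowered wild-type GFP, culture density cut under 30%, mutant RFP and density less affected; inactive means any of these conditions unmet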; further: one replicate is shown; some compounds called inactive have numbers as strong as hits
Ecoli rRNA inh OD600 – also measured in Ecoli rRNA inh; calls as there; OD600 change, %; measured here: OD600 growth;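 optical density of the mix in the first replicate; 0 = DMSO median and -100 = no signal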
Ecoli rRNA inh RFP – further read-out of Ecoli rRNA inh, marked with its call; RFP signal change, %; measured here: RFP humanized mutant strains;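 first replicate; 0 = DMSO median and -100 = no signal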
The depositor's hits bear a star; i = inactive; . = no result given. The list is partial. The share of hits here may be higher or lower than overall.

#	mol	UCH37 inh	Beta2AR agonist	HNF4A DNA FP	ALR inh	FGF22 binding	Ecoli growth	Ecoli rRNA inh	Ecoli rRNA inh OD600	Ecoli rRNA inh RFP
1	Cc1ccccc1OCC(=O)NCCS(=O)(=O)N1CCN(c2ccc(F)cc2)CC1	-1.6	-4	-3.5	-5	i	0.67	-17	-41	7.2
2	CC(=O)N1c2ccc(S(=O)(=O)NCCC(=O)NCCc3ccc(C)cc3)cc2CC1C (stereo not drawn)	-0.8	-2	1.2	-2	i	0.61	1	-3	-3.1
3	Cc1ccc(NC(=O)c2ccc3c(=O)n4c(nc3c2)CCCCC4)cc1F	-20	4	2.7	.	i	0.67	-2	9	-1.8
4	COCCn1c(C)c(C)c(S(=O)(=O)c2ccccc2)c1N	4.4	2	1.8	-15	i	0.7	19	18	54
5	COc1ccccc1NC(=O)Cc1csc(N)n1	4.5	1	0.3	-7	i	0.7	7	9	3.2
6	Cc1cc(NC(=O)c2cc(-c3ccc(C)s3)nc3ccccc23)no1	-107	-6	2.7	.	i	0.73	20	13	9.5
7	Cc1oc(C(=O)O)cc1COc1ccc2c3c(c(=O)oc2c1C)CCC3	-40	6	-2.2	22	.	0.67	.	.	.
8	CCc1ccc(S(=O)(=O)Nc2ccccn2)cc1	.	2	2.7	-5	i	.	9	11	0.5
9	Clc1ccc2nc(C3CCN(Cc4nnnn4C4CCCCC4)CC3)[nH]c2c1	0.8	1	5.0	.	.	0.66	.	.	.
10	COc1ccc(C2CC(=O)Oc3cc(O)ccc32)cc1 (stereo not drawn)	.	2	5.4	.	i	.	6	6	8.2
11	Cc1cc(NC(=O)CSc2nc(=O)cc(N)n2-c2ccc(Cl)cc2)no1	1.2	-6	-2.7	71	i	0.69	0	3	-1.1
12	COC(=O)c1ccc(NC(=O)C2C3CCC(C3)C2C(=O)O)cc1 (stereo not drawn)	1.7	-4	-4.2	.	.	0.69	.	.	.
13	CC(C)c1ccccc1NS(=O)(=O)N(C)C	1.4	3	0.1	1	i	0.66	18	10	2.6
14	Cc1cccc(NC(=O)CCC(=O)NCCO)c1	2.7	-5	3.2	-4	.	0.73	.	.	.
15	COc1cc(C(C)=O)ccc1Oc1cc(NN2CCCCC2)c([N+](=O)[O-])cc1[N+](=O)[O-]	5.3	-13	1.1	15	i	0.72	7	7	-2.2
16	COc1ccc(OC)c(NC(=S)N2CCN(C(=O)C3CCCO3)CC2)c1 (stereo not drawn)	0.3	-7	0.6	-13	i	0.7	24	21	-0.6
17	c1ccc2c(c1)NCC1CCCN21 (stereo not drawn)	-1.0	7	2.1	38	i	0.7	10	21	0.4
18	CCOc1ccc(S(=O)(=O)N2CCCC(C(=O)N3CCOCC3)C2)cc1 (stereo not drawn)	.	-8	-1.6	-1	i	.	11	4	0.5
19	COc1cccc(NC(=O)C2CCN(S(C)(=O)=O)CC2)c1	1.7	0	-4.0	1	.	0.7	.	.	.
20	COc1ccc(N(Cc2cc3cc(OC)ccc3[nH]c2=O)C(=O)C2CCCO2)cc1 (stereo not drawn)	-75	6	0.6	-21	.	0.77	.	.	.
21	CCCN=C(C)C1=C(O)c2ccccc2C1=O	6.0	-5	1.4	5	i	0.68	-10	2	-4.3
22	O=C(CCS(=O)(=O)c1ccccc1)Nc1nc2cc3c(cc2s1)OCO3	-0.3	-2	1.7	4	i	0.69	-12	-11	-5.1
23	Cc1cccc2c1CC(C)(C)NC2=C(C#N)C#N	11	-2	4.3	3	i	0.68	-5	2	-0.4
24	COc1ccc(CCNC(=S)N2CCN(S(=O)(=O)c3ccc(C)cc3)CC2)cc1	-1.3	0	-1.3	-1	i	0.68	5	9	2.2
25	CCc1ccccc1Nc1nc(N)nc(CSc2nnnn2C)n1	-0.1	-1	-1.0	-11	i	0.67	-3	-2	0.3
26	COc1ccc2c(c1)CC1c3c(cc4c(c3-2)OCO4)CC[N+]1(C)[O-] (stereo not drawn)	-0.6	8	-5.1	-47	i	0.66	-20	-35	6.7
27	O=C(NCC(c1ccco1)N1CCCC1)c1cccc(S(=O)(=O)N2CCOCC2)c1 (stereo not drawn)	1.0	-2	1.6	0	i	0.67	5	13	0.9
28	COc1cc(C(=O)NCCC(=O)NCCCN2CCCCC2C)cc(OC)c1OC (stereo not drawn)	-0.1	-9	-0.6	-6	i	0.73	14	12	2.7
29	O=C(CCS(=O)(=O)c1ccc2c(c1)NC(=O)CO2)NCCc1ccc(Cl)cc1	5.7	1	0.7	-15	i	0.68	-7	-6	0.2
30	CCOC(=O)C1=C(COC(=O)CCS(=O)(=O)c2ccc(C)cc2)NC(=O)NC1C (stereo not drawn)	0.5	8	0.9	.	i	0.64	9	8	0.8
31	O=S(Cc1ccc(Cl)cc1)c1ncc(CO)n1Cc1ccccc1 (stereo not drawn)	-1.9	2	-5.4	-13	i	0.67	1	-3	-2.4
32	CC(=O)c1c(C)[nH]c(=S)c(C#N)c1-c1ccc(Cl)cc1	8.0	8	0.4	19	i	0.7	-13	-3	0.9
33	COc1ccc(C(C)(C)C)cc1NC(=O)CN(C)C1=NS(=O)(=O)c2ccccc21	.	.	3.3	.	i	.	-9	-22	1.0
34	Cn1nc(C#N)c(=O)[nH]c1=O	3.1	-1	-1.0	.	i	0.68	13	12	0.3
35	N#Cc1ccc(C(=O)N2CCN(S(=O)(=O)c3ccc(Cl)s3)CC2)cc1	0.0	1	-0.8	-1	i	0.69	.	.	.
36	CCOc1ccccc1N=C1SC(CC(=O)Nc2ccc(OC)cc2OC)C(=O)N1CCC1=CCCCC1 (stereo not drawn)	7.6	67*	-5.0	-19	i	0.74	.	.	.
37	COc1ccc(OC)c(S(=O)(=O)N2CCN(CC(O)COc3ccccc3)CC2)c1 (stereo not drawn)	0.0	5	0.2	1	i	0.68	-6	-9	1.5
38	Cc1ccc(C(C)C)c(OCC(=O)NN2C(=O)c3ccccc3C2=O)c1	3.9	9	-0.9	1	i	0.68	-5	-3	-3.4
39	Cc1ccc(S(=O)(=O)N2CCOCC2)cc1C(=O)OCC(=O)NC1CCCC1	-1.3	2	-0.8	3	i	0.68	6	7	-1.0
40	C=CCOC(=O)C1=C[C@@H](c2ccc(C(F)(F)F)cc2)[C@H](CCCO)[C@@H](OCC)O1	-2.9	12	2.1	.	i	.	12	12	15
41	CCOc1ccc(NC(=O)COC(=O)C2COc3ccccc3O2)cc1 (stereo not drawn)	.	.	-0.1	.	i	.	5	19	1.5
42	O=C(Cn1c(=O)n(Cc2ccc3c(c2)OCO3)c(=O)c2ccccc21)N1CCCc2ccccc21	4.3	-1	0.8	2	.	0.82	.	.	.
43	C/C(=N\NC(=O)c1ccncc1)c1cc2ccccc2o1	.	1	-2.1	3	i	.	.	.	.
44	O=C(COC(=O)CCc1c[nH]c(=O)[nH]1)Nc1ccccc1Cl	-4.0	-3	-9.7	8	.	0.71	6	5	-2.5
45	Cc1onc(-c2ccccc2)c1C(=O)N1CCc2ccccc21	-2.5	-6	0.5	-2	i	0.74	-1	9	-2.0
46	Cc1cc(C(=O)NCc2ccc(S(N)(=O)=O)cc2)cs1	0.6	-2	3.7	-2	i	0.64	13	10	-2.3
47	CCOc1c2ccc(C(=O)NCc3ccco3)cc2nn1CC	-42	-1	13	-8	.	0.66	.	.	.
48	O=C(C[C@@H]1C/C=C\C[C@H](Cc2ccc(F)cc2)C(=O)OCCNC1=O)N[C@H](CO)Cc1ccccc1	2.0	3	4.3	-1	i	.	0	9	-8.4
49	CCc1c(C)nc2c(-c3ccccc3)c(C)nn2c1Nc1ccc(NC(C)=O)cc1	-44	1	-0.5	19	i	0.68	-12	-11	-3.7
50	Cc1ccc(NC(=O)COC(=O)CNC(=O)c2ccco2)cc1	-0.8	-4	-2.1	29	i	0.68	3	3	-0.8
51	O=C(CN1CCCC1)Nc1ccc([N+](=O)[O-])cc1Cl	4.1	-6	1.6	-61	i	0.71	19	3	-0.5
52	CCOC(=O)C1(CC2CCCCO2)CCN(C2CCSCC2)CC1 (stereo not drawn)	-1.9	9	2.8	-32	.	0.67	16	6	-0.8
53	Cc1sc2nc(CN3CCOCC3)nc(Cl)c2c1C	2.4	-2	-2.4	17	i	0.65	9	5	-2.1
54	O=C(COC(=O)c1nc(Cl)ccc1Cl)NC1CCCCC1	0.8	-3	4.1	.	i	0.63	5	15	0.3
55	CCC(=O)Nc1ccc(Cl)c(NC(=O)C(C)C)c1	2.5	-2	1.0	-2	i	0.66	8	8	3.7
56	CC(C)[C@H](NC(=O)c1ccccc1Br)C(=O)OCc1nc2ccsc2c(=O)[nH]1	0.9	5	-1.4	-1	i	0.61	1	3	-0.8

Following part
#	mol	UCH37 inh	Beta2AR agonist	HNF4A DNA FP	ALR inh	FGF22 binding	Ecoli growth	Ecoli rRNA inh	Ecoli rRNA inh OD600	Ecoli rRNA inh RFP
57	CCCCc1nc(NCc2ccccc2)c(C#N)c2c1COC(C)(C)C2	-51	4	-1.7	-5	.	0.87	.	.	.
58	O=C(c1ccco1)N1CCN(C2c3ccccc3-c3ccccc32)CC1	6.2	-5	-4.4	-12	i	0.63	.	.	.
59	Oc1ccccc1-c1nc(NCc2ccccc2)c2ccccc2n1	-0.1	4	11	-2	i	0.65	25	9	-4.0
60	Nc1nc(N2C(=O)C3CC=CCC3C2=O)nn1-c1ccccc1 (stereo not drawn)	2.5	10	6.6	2	.	0.7	.	.	.
61	COc1ccc(N2CCN(S(=O)(=O)c3cc4c(cc3C)NC(=O)CO4)CC2)cc1	5.0	17	-0.1	.	i	0.8	4	11	1.7
62	COc1ccccc1NC(=O)C1=C(C)Nc2nnnn2C1c1cccc(C)c1 (stereo not drawn)	6.3	-13	-0.5	4	i	0.65	-7	-1	-3.7
63	CN(C)C(=O)C1=NOC2(C1)C(=O)Nc1ccccc12 (stereo not drawn)	.	.	-1.8	.	i	.	17	6	4.1
64	O=C(N/N=C/c1cc(Cl)cc([N+](=O)[O-])c1O)c1ccc2c(c1)OCO2	.	4	-0.6	3	i	.	8	14	-3.5
65	CC(C)N(C(=O)[C@H]1C[C@H](CC(=O)NCCCN(C)C)C(=O)N2CCc3c([nH]c4ccc(Cl)cc34)[C@]12C)C(C)C	2.9	2	-0.7	.	i	0.69	4	-19	2.0
66	COc1ccc(-c2nc(CS(=O)CC(=O)NCCN3CCCCCC3)c(C)o2)cc1OC (stereo not drawn)	-1.0	2	0.7	100*	i	0.59	5	4	-1.1
67	CCOc1ccc(C(=O)c2ccc(OCC)c(N)c2)cc1N	5.0	-2	7.3	-1	.	0.67	.	.	.
68	O=C(OCC1CC(c2ccccc2Cl)=NO1)c1ccc(Br)cc1 (stereo not drawn)	0.8	-5	5.5	-25	.	0.69	.	.	.
69	Cc1cc(C(=O)N2CCc3ccccc32)c2cc(F)ccc2n1	6.0	4	-0.5	-5	.	0.66	.	.	.

A draw from above in order of number of heavy atoms, lowest first.
#	mol	UCH37 inh	Beta2AR agonist	HNF4A DNA FP	ALR inh	FGF22 binding	Ecoli growth	Ecoli rRNA inh	Ecoli rRNA inh OD600	Ecoli rRNA inh RFP
67	CCOc1ccc(C(=O)c2ccc(OCC)c(N)c2)cc1N	5.0	-2	7.3	-1	.	0.67	.	.	.
68	O=C(OCC1CC(c2ccccc2Cl)=NO1)c1ccc(Br)cc1 (stereo not drawn)	0.8	-5	5.5	-25	.	0.69	.	.	.
64	O=C(N/N=C/c1cc(Cl)cc([N+](=O)[O-])c1O)c1ccc2c(c1)OCO2	.	4	-0.6	3	i	.	8	14	-3.5
65	CC(C)N(C(=O)[C@H]1C[C@H](CC(=O)NCCCN(C)C)C(=O)N2CCc3c([nH]c4ccc(Cl)cc34)[C@]12C)C(C)C	2.9	2	-0.7	.	i	0.69	4	-19	2.0
